RE007 growth inh = less growth of the S. pombe RE007 Vpr strain; 360,000 compounds, 0.21% hits; Potency, µM (doses to about 92.2 µM), without a hit: at the top dose activity change, negative = less growth; AID 651644; S. pombe RE007 Vpr strain, BacTiter-Glo ATP luminescence, 24 h; control for the full effect not named in the record; active = well fitted falling curve with a large enough effect; inconclusive = small, poorly fitted or top-dose-only effect; inactive = no such curve, though single readings can be large or run the other way;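 note: % is set by controls: 0 for no effect and ±100 for the full control effect; nearly all actives have a fitted effect of over 50% in size; the assay follows cell death caused by Vpr and the record does not say whether a fall means rescue or toxicity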
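Fission yeast RE007 carrying one integrated HIV-1 vpr copy, seeded at OD 0.01 in PMG+AL medium with 23 nL pinned compound. Grown 24 h at 30 degrees; viability read by BacTiter-Glo luminescence after 5 min.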
Cruzain inh Det = inhibitors of Trypanosoma cruzi cruzain with detergent | P25779 | purified cruzain, Z-FR-AMC fluorescence, 0.01% Triton | Potency, µM, for the others: max response, negative = inhibition, most hits filed as inhibitors | 200,000 compounds, 0.43% hits | AID 1478; active = well fitted curve in the direction sought with a large enough effect; inconclusive = small, poorly fitted or top-dose-only effect, or another doubt; inactive = no such curve, though single readings can be large; an effect the other way counts as inactive or inconclusive;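 note: plate controls were neutral wells for no effect and buffer without enzyme for full effect; nearly all actives have a fitted effect of over 40% in size; top concentration of the series not given in the record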
Target sequence (P25779 123-467 limits assumed): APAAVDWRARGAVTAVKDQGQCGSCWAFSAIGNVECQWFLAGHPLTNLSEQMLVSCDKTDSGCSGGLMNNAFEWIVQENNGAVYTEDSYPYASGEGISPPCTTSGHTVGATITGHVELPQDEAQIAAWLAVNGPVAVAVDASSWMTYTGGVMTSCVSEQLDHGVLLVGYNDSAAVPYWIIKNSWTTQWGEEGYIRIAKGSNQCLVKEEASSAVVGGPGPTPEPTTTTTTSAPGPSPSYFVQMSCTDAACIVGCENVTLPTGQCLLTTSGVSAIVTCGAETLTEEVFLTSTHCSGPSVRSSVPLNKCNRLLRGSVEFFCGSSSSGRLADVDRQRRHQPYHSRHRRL
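Sodium acetate buffer (100 mM, pH 5.5) containing 5 mM DTT and 0.01% Triton X-100 hosted 1.5 nM cruzain and test compound for 15 min at room temperature. Cleavage of 2 uM Z-FR-AMC was then tracked by fluorescence.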
Marburg entry inh = inhibitors of Marburg virus binding or cell entry | Marburg virus pseudotyped entry inhibition, cell reporter; control for the full effect not named in the record; about a third of the inactives were read at about 46 µM | Potency, µM (titrated, usually from 37.8 µM), without a hit: at the top dose activity change, negative = inhibition, most hits filed as inhibitors | 300,000 compounds, 1.8% hits; active = well fitted inhibition curve with a large enough effect; inconclusive = small, poorly fitted or top-dose-only effect, or effect the other way; inactive = flat fitted curve, though single readings scatter; tested in HEK293 cells; about a fifth of its hits are not listed in these tables; note: % is set by controls: 0 for no effect and ±100 for the full control effect; luciferase read-out
StopGo reporter = lowers the luciferase signal of an FMDV 2A StopGo reporter | Potency, µM (doses to about 57.9 µM), for the others: at the highest dose signal change, negative = less light | human cells with a luciferase reporter of 2A StopGo recoding; control for the full effect not named in the record | 410,000 compounds, 1.2% hits; active = well fitted falling curve with a large enough effect; inconclusive = small, poorly fitted or top-dose-only effect; inactive = no such curve, though single readings can be large or run the other way; tested in HEK293T cells; note: % is set by controls: 0 for no effect and ±100 for the full control effect; nearly all actives have a fitted effect of over 45% in size; luciferase light after 4 h
Cruzain noTriton = inhibitors of Trypanosoma cruzi cruzain without detergent; Potency, µM, for inactives: max response, negative = inhibition, usual class: inhibitors; AID 1476; P25779; purified cruzain, Z-FR-AMC fluorescence, no detergent; 200,000 compounds, 2.3% hits; active = well fitted curve in the direction sought with a large enough effect; inconclusive = small, poorly fitted or top-dose-only effect, or another doubt; inactive = no such curve, though single readings can be large; an effect the other way counts as inactive or inconclusive;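 note: plate controls were enzyme without inhibitor for no effect and buffer without enzyme for full effect; nearly all actives have a fitted effect of over 40% in size; top concentration of the series not given in the record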
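Purified cruzain at 1.5 nM, pre-incubated 15 min with compound at room temperature in 100 mM sodium acetate pH 5.5, 5 mM DTT, 0.00005% Triton X-100. Reaction started with 2 uM Z-FR-AMC; AMC fluorescence increase over 60 s gives rate.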
SARS PLP yeast = SARS-CoV PLP inhibition in yeast; AID 485353; Potency, µM (top dose mostly 32.9 µM), without a hit: top-dose activity, positive = growth rescue; S. cerevisiae expressing SARS-CoV PLpro, growth rescue; control for the full effect not named in the record; 330,000 compounds, 0.19% hits; note: 0% is about no effect; nearly all actives have a fitted effect of over 55% in size; growth read by luminescence after 48 h
LASV entry inh = Lassa virus entry inhibition. Lassa virus pseudotype entry inhibition, cell reporter; control for the full effect not named in the record. Potency, µM (top dose mostly 37.9 µM), for inactives: at the top dose activity change, negative = inhibition, hits mostly inhibitors. 300,000 compounds, 1.2% hits; active means well fitted inhibition curve with a large enough effect; inconclusive means small, poorly fitted or top-dose-only effect, or effect the other way; inactive means flat fitted curve, though single readings scatter; tested in HEK293 cells; note: % is set by controls: 0 for no effect and ±100 for the full control effect; nearly all actives have a fitted effect of over 50% in size; luciferase read-out
NS1 inh = influenza NS1 inhibition; Potency, µM (highest dose often 46.1 µM), without a hit: at the highest dose activity, positive = more growth; 270,000 compounds, 0.4% hits; S. cerevisiae slowed by influenza A NS1, growth recovery by OD600; AID 2326; note: actives are rising curves; nearly all actives have a fitted effect of over 50% in size
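A cell-based growth assay was used: compounds that relieve NS1-induced slow growth of budding yeast raise OD600. Assay medium was yeast nitrogen base with ammonium sulphate and -URA supplement, pH 6.0, with 2% galactose.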
The depositor's hits bear a star; ? = inconclusive; / = no result given; & = joins results of further samples; [ ] = remark or other dose. Unless noted, calls come from the whole dose curve; as a rule, active means well fitted rising curve with a large enough effect; inconclusive means small, poorly fitted or top-dose-only effect; inactive means no such curve, though single readings can be large or run the other way. Potency is the fitted concentration of half-maximal effect.

Sequence of screens: RE007 growth inh, Cruzain inh Det, Marburg entry inh, StopGo reporter, Cruzain noTriton, SARS PLP yeast, LASV entry inh, NS1 inh
(1) Cc1ccccc1NC(=O)c1cc[n+]([O-])cc1
  -1.4%, /, 10.7%[46.1 µM], -4.5%, /, /, ?, 10.3%
(2) COCCCNC(=O)c1c(N)n(/N=C/c2ccccn2)c2nc3ccccc3nc12
  4.2%, 1.3%, -17.8%, -21.4%, ?, 9.0%, -19.3%, 15.1%
(3) CCC(C)NC(=O)c1cnc2n(c1=O)CCS2 (stereo not drawn)
  -8.4%, -4.7%, /, -1.7%, -2.3%, 1.0%, /, -37.3%
(4) O=C(NNS(=O)(=O)c1ccccc1)C(O)(c1ccccc1)c1ccccc1
  -4.9%, 0.2%, 17.3%, 9.5%, 18.9%, -3.1%, -20.1%, -11.7%
(5) NC(=O)c1nn(-c2ccccc2)nc1NC(=O)Cn1nnc(-c2ccccc2)n1
  -12.0%, -1.3%, -28.8%, -10.6%, -1.6%, 17.1%, -4.2%, 6.6%
(6) O=C(O)CSc1ncccc1C(=O)O
  12.8%, -2.5%, 22.5%, -21.9%, 2.1%, 26.9%, 1.2%, 16.8%
(7) Cc1nc2ccc(S(=O)(=O)NCC(=O)N3CCc4ccccc4C3)cc2s1
  14.8%, 7.7%, 7.5%, -15.3%, -10.6%, -0.7%, 7.8%, 3.6%
(8) CCCCNC(=O)c1cc(-c2ccc(F)cc2)on1
  3.4%, -1.4%, ?, 71.3%[activator], -29.3%, 13.5%, ?, -4.2%
(9) Cc1cc(C)cc(C(=O)Nc2cccnc2)c1
  -18.9%, /, /, 21.7%, /, -10.6%, /, -23.5%
(10) CCOc1ccc(-n2c(SCC(=O)Nc3ccc(CC)cc3)nc3n[nH]c(C)c3c2=N)cc1
  3.1%, /, ?, -11.9%, /, 0.0%, ?, /
(11) O=C(NCc1ccccc1Cl)c1ccc(NC(=O)N2CCSc3ncccc32)cc1
  /, -3.1%, /, -4.4%, ?, /, 4.0%[46.1 µM], /
(12) Cc1cc(OCC(=O)Nc2ncn[nH]2)c(C)c(C)c1Br
  /, -1.0%, ?, -20.9%, ?, /, -0.3%[46.1 µM], /
(13) CCCSCCCNC(=O)CN1C(=O)COc2ccc(S(=O)(=O)N3CCCC3)cc21
  8.9%, 1.1%, 2.6%[46.1 µM], 0.5%&-17.1%, -3.8%, 1.0%, 15.7%[46.1 µM], -0.7%
(14) CC(C)(C)NC(=O)COC(=O)c1cncc(Br)c1
  -9.0%, 0.5%, 27.6%, -10.6%, 2.3%, 3.7%, 1.3%, -1.6%
(15) COc1ccc(N(CC(=O)Nc2ccc(Cc3ccncc3)cc2)S(=O)(=O)c2ccccc2)cc1
  -8.5%, /, -24.4%[46.1 µM], 7.6%, /, 0.7%, ?, 12.4%
(16) O=C(O)CC(C(=O)Nc1ccc(F)cc1)C1CCCO1 (stereo not drawn)
  25.8%, /, -3.0%, -6.7%, /, -2.3%, -11.7%, 2.4%
(17) S=C(NCc1ccncc1)Nc1ccc(Cl)c(Cl)c1
  -27.2%, -8.2%, ?, 24.5%, 1.0%, -17.4%, -17.9%, -14.8%
(18) CCOc1cc(C2c3c(-c4ccc(Br)cc4)n[nH]c3C(=O)N2c2ccc(Cl)cc2)ccc1O (stereo not drawn)
  /, -2.9%, ?, ?, ?, /, ?, /
(19) CCCNC(=O)N[C@@H](CCSC)C(=O)OC
  5.9%, 1.0%, 2.0%, 23.0%, 1.4%, -4.9%, 29.1%, 4.5%
(20) Cc1cc(C(=O)Nc2ccc(S(=O)(=O)N3CCCC3)cc2)cs1
  7.5%, -11.0%, -26.0%, ?, -1.6%, 0.1%, -23.1%, -24.9%
(21) Cc1ccccc1N(CC(=O)NC1CCCC1)C(=O)C1(C)CC(=O)N=C2C=CC=CN21 (stereo not drawn)
  12.7%, 2.4%, 0.9%, -12.2%, -2.7%, 8.1%, 13.6%, -3.1%
(22) O=C(CSc1ccc(Cl)cc1)NCC1CCCO1 (stereo not drawn)
  -14.5%, -2.3%, 15.0%, 18.3%, 10.1%, -5.9%, 4.7%, -8.6%
(23) CCCC(=O)Nc1nc(-c2ccc(OC)cc2)cs1
  1.4%, 3.1%, ?, -10.6%, 3.8%, -8.8%, -5.9%, 0.3%
(24) O=C(NCCCN1CCN(c2ccccc2)CC1)c1ccc2nc(Cc3ccccc3)oc2c1
  /, -0.7%, /, ?, -13.4%, /, -21.0%[46.1 µM], /
(25) Cc1cccn2cc(CNC(=O)c3ccc(Br)o3)nc12
  -14.1%, /, /, -12.4%, /, 0.5%, /, 18.0%
(26) CCN(CC)S(=O)(=O)c1cccc(NC(=O)COC(=O)C2CC3C=CC2C3)c1 (stereo not drawn)
  -10.4%, /, /, 0.0%, /, 0.6%, /, -9.5%
(27) CC1Cc2ccccc2N1C(=O)CN1C(=O)COc2ccccc21 (stereo not drawn)
  9.1%, 3.2%, -2.7%, -8.0%, 3.3%, 5.1%, 4.8%, 7.6%
(28) CC(C)CCN1C(=O)c2ccc(C(=O)N3CCCCC3)cc2C1=O
  -4.2%, /, 10.9%, 29.2%, /, -15.7%, 6.3%, /
(29) CCc1ccc(-c2cc(C)no2)cc1S(=O)(=O)NCCc1ccc(S(N)(=O)=O)cc1
  1.0%, /, /, 31.0%[activator], /, 2.1%, /, 12.8%
(30) CN1CCN(C(=O)c2cc3nc(-c4ccccc4)cc(C(F)(F)F)n3n2)CC1
  -12.0%, 0.4%, -21.1%, ?, 0.0%, /, -1.3%, -6.2%
(31) O=C(COc1ccc(Br)cc1)Nc1ccccc1C(=O)NC1CC1
  18.5%, /, 8.2%[46.1 µM], -15.1%, /, 1.9%, -22.7%, /
(32) Cc1cccc(Cn2c(CN3CCC(C(=O)NC(C)C)CC3)cc3ccccc32)c1
  /, -0.3%, /, -23.1%, 2.8%, /, -22.2%[46.1 µM], /
(33) CN(C)CCCNc1nc(-c2ccccc2)nc2ccccc12
  -20.1%, /, 12.6µM*, -15.3%, /, 1.0%, -12.9%[46.1 µM], 3.5%
(34) c1ccc(C2=Nn3c(Cn4nnc5ccccc54)nnc3SC2)cc1
  12.6%, /, 1.2%[46.1 µM], 6.4%, /, 0.1%, 13.5%, -0.9%
(35) O=C(Nc1n[nH]c(C(F)(F)F)n1)c1cccs1
  8.6%, /, -21.1%[46.1 µM], -11.2%, /, -1.4%, -1.9%, -1.2%
(36) CN(C)C(CNC(=S)Nc1ccc(F)cc1)c1cccnc1 (stereo not drawn)
  -2.5%, /, 7.8%[46.1 µM], -12.3%, /, -1.6%, 16.7%, /
(37) Cc1ccc(SCc2[nH]nc3c2C2(C(=O)Nc4ccc([N+](=O)[O-])cc42)C(C#N)=C(N)O3)cc1 (stereo not drawn)
  -5.1%, -16.8%, 0.0%, 0.0%, -6.7%, -1.1%, 0.3%, -46.3%
(38) C#CCn1c(=NC(=O)CSC(C)=O)sc2cc(F)ccc21
  -6.6%, /, /, -24.5%, /, -1.6%, /, 9.4%
(39) CCn1c(CSCc2ccccc2)n[nH]c1=S
  7.2%, /, 1.2%[46.1 µM], -7.7%, /, -1.2%, -11.6%, 0.9%
(40) CCN1CCN(C(=O)CN2C(=O)COc3ccc(C)cc32)CC1
  2.7%, /, 4.6%[46.1 µM], -18.3%, /, 2.4%, 10.8%, 5.2%
(41) CCCN1C(=S)SC(C)(C)C1/[N+]([O-])=C/c1ccc(S(=O)(=O)NC)cc1 (stereo not drawn)
  3.7%, /, -10.5%[46.1 µM], -17.2%, /, 0.4%, 21.1%, 5.5%
(42) O=C(COc1ccc(Cl)cc1)N(Cc1ccco1)C1CCS(=O)(=O)C1 (stereo not drawn)
  7.1%, /, -8.6%, -9.6%, /, 0.2%, 0.7%, -0.2%
(43) CCOC(=O)c1c(N)n(CCOC(=O)c2cccs2)c2nc3ccccc3nc12
  9.3%, -25.0%, ?, /, 10.7%, -1.2%, 6.0%, -68.8%
(44) COc1ccc2nccnc2c1[N+](=O)[O-]
  8.2%, /, 0.4%[46.1 µM], 6.5%, /, 0.8%, -6.6%[46.1 µM], 5.9%
(45) COC(=O)c1ccc(COC(=O)C(CCS(C)(=O)=O)N2C(=O)c3ccccc3C2=O)cc1 (stereo not drawn)
  32.2%, -2.6%, 17.2%, -14.4%, ?, -16.3%, 13.7%, -17.1%
(46) Cc1nc2cc(N)ccc2n1C1CCCCC1
  -1.2%, /, /, -21.9%, /, -0.1%, /, 4.3%
(47) CN1CC(C(=O)c2ccc(Cl)cc2)C(c2ccccc2F)C1 (stereo not drawn)
  -3.1%, /, ?, -18.8%, /, 0.8%, -22.2%, 0.1%
(48) CCN(CC)S(=O)(=O)c1ccc(C(=O)Nc2cc(C)on2)cc1
  7.7%, /, 8.0%, 1.5%, /, 0.3%, ?, -2.8%
(49) Cc1sc2nc(C3CCCCC3)nc(SCC(=O)N3CC(=O)Nc4ccccc43)c2c1C
  10.1%, 3.3%, ?, -6.8%, -6.4%, 0.3%, -21.6%, 27.2%
(50) C/C(=N\NC(=O)CNc1cccc(C(F)(F)F)c1)c1cccc(Br)c1
  18.1%, -14.2%, 1.8%, 0.3%, -5.1%, 4.7%, 3.4%, 0.0%
(51) COCC(=O)NC(C)c1nc2ccccc2[nH]1 (stereo not drawn)
  -8.0%, 4.5%, -7.7%, -8.8%, -17.4%, -1.7%, -3.0%, -5.2%
(52) NC(=O)c1ccc(C(F)(F)F)n(Cc2c(Cl)cccc2Cl)c1=O
  -4.0%, -7.6%, ?, ?, 6.3%, 2.2%, -5.5%, 1.1%

Assay outcomes deposited in PubChem by National Center for Advancing Translational Sciences (NCATS).
